PrP 5UTR inh – inhibition of PrP 5' UTR reporter expression. cell-based PrP 5' UTR mRNA reporter, plate reader. inhibition, % (concentration not given with the values). 0.35% of 340,000 active. AID 488862;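 active means every replicate at 50% or more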;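 further: 0 = median of the neutral control wells; tested in H4 reporter cells; numbers are from one replicate; inactives centre near -14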
Mtb hypoxia inh – Mtb hypoxia fluorescent reporter inhibition. 0.1% of 300,000 active. AID 1159583. M. tuberculosis hypoxia-regulated fluorescent reporter, fluorescence. fluorescence inhibition, % (no concentration beside the values);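 active means 35 to 45% if threefold the growth effect, above 45% if 1.5-fold the growth effect; inactive means the rest, general growth blockers included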;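 further: wells of about 50 µL received 100 nL stock; 0% = vehicle wells and 100% = reference inhibitor wells; whole bacteria with a GFP reporter of the hypoxia response; strong numbers were not always called active; many hits fall short of the cut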
Sa RN4220 lethal – kills Staphylococcus aureus RN4220. S. aureus RN4220 growth, OD600, 16 h. inhibition, % (no concentration beside the values). 0.33% of 330,000 active. AID 1259311;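 active means z-score of -3 or lower and OD600 up to 0.18 on both plates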;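 further: plate controls were untreated cells for no effect and reference antibiotic for full effect; stock transfer was 100 nL into about 80 µL; one replicate is shown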
BJeLR lethal – kills HRASV12-expressing BJeLR cells; AID 1554; inhibition, % (no concentration beside the values); 0.17% of 300,000 active; BJeLR (HRASV12) viability, CellTiter-Glo ATP luminescence, 48 h; reference of the scale not given here;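 active means replicate mean above 50%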;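 further: 50 nL library stock added to about 25 µL; numbers are from one replicate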
Autofluor counter – compound fluorescence in toxin protease inhibitor counterscreen; compound autofluorescence counterscreen, microsphere flow cytometry; active compounds read high; fluorescence intensity (test concentration not listed); 3.1% of 360,000 active;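 active means at least 3 SD above the mean of all compounds, about 16000 in these data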;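 further: 100 nL of 1 mM stock went into each well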
Sa ugtP lethal – kills S. aureus RN4220 lacking UgtP; growth inhibition, % (concentration not given with the values); S. aureus RN4220 ugtP deletion, OD600 growth, 16 h; some inactives read as strong as hits; 0.54% of 330,000 active;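 active means z-score under -3 and OD600 up to 0.15 on both plates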;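 further: plate controls were untreated wells for no effect and antibiotic for full effect; wells of about 80 µL received 100 nL stock; the first replicate is given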
Mtb hypoxia inh growth – second read-out of Mtb hypoxia inh, no call of its own (marks repeat the call); growth inhibition, %; measured here: M. tuberculosis growth (absorbance);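 0% = vehicle and 100% = reference antibiotic; read after six days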
Active calls of the source: *; / = no result given. Compounds as they come; any-hit rate near 3.9%.

No.	smiles	PrP 5UTR inh	Mtb hypoxia inh	Mtb hypoxia inh growth	Sa RN4220 lethal
1	CCOC(=O)N1CCN(C(=O)c2oc3ccc(S(=O)(=O)N(CC)CC)cc3c2C)CC1	-15.5	5.2	1.8	5.3
2	CCC(=O)c1ccc(/C=C/c2nc3ccccc3n2C)o1	-96.4	-7.2	-11.8	-1.4
3	Cn1c(=O)c2c(nc(CN3CCN(C(=O)c4ccco4)CC3)n2CCc2ccccc2)n(C)c1=O	-20.1	6.0	13.2	4.5
4	N#Cc1cccnc1N1CCC(C(N)=O)CC1	-13.8	1.4	12.6	3.4
5	O=C(O)c1cc(-c2ccccc2)n(-c2ccc(Cl)cc2)n1	-16.0	-0.1	6.0	-2.4
6	Cc1ccc(C(=O)OCc2nc(N)nc(Nc3ccccc3C)n2)cc1	0.8	-0.9	4.0	5.7
7	COC(=O)c1ccccc1NC(=O)c1sc(=S)n(C)c1N	-1.5	/	/	3.2
8	CCc1cccc(CC)c1NC(=O)COC(=O)c1cccc(S(=O)(=O)N2CCc3ccccc3C2)c1	-18.3	/	/	6.9
9	COc1ccc(-c2nc(SC(C)C(=O)NC3CC3)n[nH]2)cc1 (stereo unspecified)	-30.0	6.5	3.9	1.0
10	COc1ccc(/C=N/NC(=O)Cn2cnc3ccccc3c2=O)cc1	-19.5	/	/	/
11	CN(C)CCCNc1ccc(-c2n[nH]c(=O)c3ccccc23)cc1[N+](=O)[O-]	-23.9	3.3	7.5	6.2
12	CC(=O)Nc1ccc2c(c1)c1ccccc1n2C(C)=O	-20.8	12.7	2.6	3.2

No.	BJeLR lethal	Autofluor counter	Sa ugtP lethal
1	4.6	3762	5.5
2	-11.5	5242	-0.2
3	13.2	21635*	-8.1
4	-1.2	4250	2.4
5	-0.3	4853	-4.6
6	-12.4	2617	-2.7
7	4.2	3355	1.7
8	16.9	2394	-1.5
9	/	5579	5.7
10	1.9	8572	/
11	-1.5	3130	10.1
12	0.4	2131	10.1

(next part)
No.	smiles	PrP 5UTR inh	Mtb hypoxia inh	Mtb hypoxia inh growth	Sa RN4220 lethal
13	O=C(NCc1ccccn1)Nc1ccc2c(c1)OCO2	-24.5	6.9	-0.3	1.0
14	Cn1c(CSCc2ccc(F)cc2)n[nH]c1=S	-27.0	5.6	7.0	5.2
15	Cc1cc2c(cc1S(=O)(=O)CCC(=O)NCCc1ccccc1)OCC(=O)N2	-7.8	-5.2	9.1	-1.3
16	COc1ccc(CNS(=O)(=O)c2ccc(S(=O)(=O)N3CCCCC3)cc2)cc1	-17.7	10.9	2.7	8.0
17	C=C1CCN(C(CC(C)C)C(=O)N2CCOCC2)S(=O)(=O)c2ccccc21 (stereo unspecified)	/	15.9	7.6	10.6
18	Cc1cc2ccccn2c1C(=O)c1ccncc1	-27.5	5.3	1.8	5.7
19	O=C1OC(Nc2cc(Br)cc3cccnc23)c2ccccc21 (stereo unspecified)	-27.8	5.4	2.0	34.3
20	Cc1cccc(NC(=O)CCCc2ccccc2)c1	-59.8	0.6	5.5	1.1
21	Cc1ccc(Nc2nc(CSc3nnc(-c4ccncc4)n3C)cs2)cc1	-20.2	9.6	7.9	5.7
22	Cc1ccc(C(c2sc3nc(C)nn3c2O)N2CCN(c3ccccc3)CC2)cc1 (stereo unspecified)	-16.6	/	/	5.2
23	CCc1ccc(CN(C)C(=O)c2cc(COc3ccc(-n4cncn4)cc3)on2)cc1	-19.2	6.2	5.7	2.4
24	C/C(CC(=O)Nc1cccc(Cl)c1C)=N\NC(=O)Cc1csc(N)n1	-13.4	/	/	/

No.	BJeLR lethal	Autofluor counter	Sa ugtP lethal
13	-9.8	17706*	1.0
14	4.5	4055	4.7
15	9.5	5376	-4.7
16	6.9	11720	8.4
17	/	/	0.0
18	-6.2	10237	-0.2
19	3.9	2345	-8.8
20	-0.5	3534	4.0
21	9.3	7051	-0.7
22	8.7	2447	9.3
23	1.3	5329	2.8
24	3.0	2195	/

Remaining list, next part
No.	smiles	PrP 5UTR inh	Mtb hypoxia inh	Mtb hypoxia inh growth	Sa RN4220 lethal
25	CC(C)(C)NC(=O)CSc1nnc(NC(=O)CCc2ccccc2)s1	-16.6	-6.9	-5.5	0.8
26	CCOC(=O)C1CCN(CC(O)COCc2cccs2)CC1 (stereo unspecified)	-59.1	5.3	-6.5	1.1
27	COc1ccc(CNC(=O)N2CCN(c3ccc(F)cc3)CC2)cc1	-56.7	14.1	6.1	1.0
28	CC(NC(=O)Cc1ccccc1)c1ccc(F)cc1 (stereo unspecified)	-12.3	2.9	7.0	-3.7
29	Cc1ccccc1N1OC2C(=O)N(c3ccc(F)cc3)C(=O)C2C1c1ccccn1 (stereo unspecified)	-12.6	-1.7	7.0	1.7
30	CCN(CC)CCCn1c2c(c(SCC(=O)Nc3nccs3)nc1=O)CCC2	-4.0	4.4	12.3	1.5
31	O=C(COc1ccccc1Cl)NC(=S)N1CCc2ccccc21	-16.3	7.7	-0.1	10.3
32	CC1CC2=C(CC1/C=N/NC(N)=S)C(C)(C)CCC2 (stereo unspecified)	-32.8	/	/	/
33	O=C(c1ccc(Cl)cc1)[C@@H]1[C@@H]2C(=O)N(c3ccc(Cl)cc3)C(=O)[C@@H]2C2c3ccccc3C=NN21 (stereo partly specified)	-6.5	7.7	3.6	-4.2
34	CC(=O)Oc1ccc(C(=O)Nc2cccc(C(=O)NC(C)(C)C)c2)cc1	-19.9	15.8	4.6	2.7
35	CC(C)=CCCC(C)CN1CCC(n2nccc2NC(=O)C2CCCC2)CC1 (stereo unspecified)	-15.9	4.8	2.0	0.1
36	O=C(Nc1ccc(Cl)c(Cl)c1)N1CCSCC1	-22.7	3.9	9.0	-1.0

No.	BJeLR lethal	Autofluor counter	Sa ugtP lethal
25	-4.0	/	5.3
26	4.7	2695	8.1
27	0.8	4105	3.4
28	13.1	2326	7.9
29	-2.3	11252	-4.8
30	4.5	/	6.8
31	-3.1	8774	-6.4
32	0.1	8288	/
33	6.3	2625	9.5
34	-5.4	2711	10.6
35	-3.5	5883	2.6
36	-13.5	9694	-6.6

Following part.
No.	smiles	PrP 5UTR inh	Mtb hypoxia inh	Mtb hypoxia inh growth	Sa RN4220 lethal
37	CCc1nnc(SCC(=O)NC2CCCCC2)nc1CC	-11.5	-4.7	4.3	1.3
38	COc1ccc(Oc2nc3c(c(=O)n(C)c(=O)n3C)n2C)cc1	7.4	-3.1	10.0	1.3
39	CCn1c(O)c(N=NC(=S)NCC2CCCO2)c2ccccc21 (stereo unspecified)	-49.4	-4.6	0.5	3.8
40	N#Cc1c(-c2ccccc2)cc(C2CC2)nc1SCC(=O)O	-5.1	8.6	-1.8	9.4
41	CCOc1ccccc1CNC(=O)C1Cc2cc(S(=O)(=O)N3CCCCC3)ccc2N1C(C)=O (stereo unspecified)	-10.4	-3.2	-3.2	-0.1
42	C[C@H](CO)N1C[C@H](C)[C@@H](CN(C)S(=O)(=O)c2cccs2)Oc2c(NC(=O)c3ccncc3)cccc2C1=O	-30.0	-1.5	9.9	-13.7
43	CCOc1cc(C2C(C(=O)OCC(C)C)=C(C)N=C3SCCC(=O)N32)ccc1OC(C)=O (stereo unspecified)	-11.7	2.3	-1.3	5.1
44	Cc1ccc(N(CC(=O)NC2CCCC2)C(=O)CCCC(=O)Nc2ccccn2)cc1C	-15.0	2.2	-1.8	-9.0
45	CCN(CC)C1=N/C(=C\c2ccco2)C(=O)N1c1ccccc1	-4.6	-1.0	8.8	0.7
46	CCOc1ccc(CCNC(=O)c2nnc(Cc3ccc(F)cc3)o2)cc1OCC	-10.3	7.9	5.1	-0.9
47	COc1cc2nc(SCC(=O)c3ccc(Br)cc3)n3nc(C)nc3c2cc1OC	-8.1	4.6	2.0	5.0
48	Cc1c(Cl)c(-c2n[nH]c(=S)n2-c2ccc(F)cc2)nn1C	0.5	18.1	12.7	7.0

No.	BJeLR lethal	Autofluor counter	Sa ugtP lethal
37	-2.1	6668	-3.0
38	-0.9	3297	3.1
39	-6.3	4321	3.4
40	-21.1	2031	11.0
41	-7.1	4810	-2.6
42	/	3309	-9.2
43	2.8	4326	7.8
44	-0.6	2785	-5.6
45	-2.4	2662	6.2
46	-6.8	4975	14.8
47	-1.8	1831	0.7
48	3.3	3639	3.3

Other records follow.
No.	smiles	PrP 5UTR inh	Mtb hypoxia inh	Mtb hypoxia inh growth	Sa RN4220 lethal
49	CCOC(=O)c1[nH]c2ccccc2c1NC(=O)CCN1CCN(C(=O)OCC)CC1	-24.6	11.4	6.3	0.8
50	c1ccc2c(Nc3ccc4c(c3)OCCO4)c3c(nc2c1)CCC3	-12.0	-0.1	3.4	0.5
51	CC1CCCCC12NC(=O)N(CC(=O)Nc1sccc1C(N)=O)C2=O (stereo unspecified)	-20.3	17.8	38.2	0.8
52	Cc1ccc(CNC(=O)CCNC(=O)N2CCn3c2nc2ccccc23)cc1	-9.6	-4.0	-12.0	4.2
53	CN(Cc1ccccc1Cl)C(=O)CCNC(=O)c1ccco1	-27.7	9.8	-2.3	3.4
54	COc1ccc(NC(=O)CS(=O)(=O)c2ccc(C)cc2)c(OC)c1	-10.8	2.0	-9.9	3.7
55	CCOc1ccc(NC(=O)CN(C)C(=O)C2CCN(C(=O)Nc3ccccc3)CC2)cc1OCC	5.9	2.2	5.3	1.2
56	COC(=O)Nc1nnc(CCc2ccccc2)s1	0.5	/	/	1.0
57	Cn1ccnc1C(=NNC(=O)c1ccccc1)c1cccc([N+](=O)[O-])c1	/	14.2	2.0	1.3
58	Cc1ccc(C)c(N2CCN(C(=O)CN(C)S(=O)(=O)c3cnc[nH]3)CC2)c1	-5.6	12.9	10.1	5.0
59	CCOC(=O)c1ccccc1Cc1nc2ccccc2c(=O)[nH]1	-6.4	5.1	9.2	1.0
60	CCn1c(NC(=O)c2ccc(C)cc2)c2ccccc2nc1=O	-2.3	/	/	-4.8

No.	BJeLR lethal	Autofluor counter	Sa ugtP lethal
49	-5.9	2721	7.3
50	4.8	2710	-4.5
51	/	8507	-1.7
52	6.8	4562	11.2
53	/	12331	13.7
54	-4.4	3737	9.9
55	/	6379	3.2
56	-0.9	2494	14.1
57	/	/	2.4
58	8.5	3530	1.1
59	-18.5	2065	-8.4
60	-0.3	2705	-1.3

(further entries)
No.	smiles	PrP 5UTR inh	Mtb hypoxia inh	Mtb hypoxia inh growth	Sa RN4220 lethal
61	Cc1ccc(C2CC(=O)N(c3ccc(F)cc3)C3=C2C(=O)CCC3)cc1 (stereo unspecified)	-15.6	-11.2	-30.8	3.5
62	CC(C)(CNS(C)(=O)=O)SCc1ccc(Cl)cc1	-6.8	10.2	-2.8	6.3
63	Cc1ccccc1Nc1nnc(SCC(=O)c2ccc(O)cc2O)s1	-29.7	2.5	3.1	9.7
64	COC(=O)c1ccc(NC(=O)CSCc2ccccc2)cc1	-31.4	/	/	-1.9
65	O=C1/C(=C\c2ccc(Br)cc2)SC(=S)N1NS(=O)(=O)c1ccccc1	-20.0	16.2	4.6	40.7
66	CCCC(C(=O)NC1CCCC1)N(CC1CCCO1)C(=O)CNS(=O)(=O)c1ccccc1 (stereo unspecified)	-15.1	7.6	-1.3	0.4
67	CCCCCCn1c(N2CCC(C(N)=O)CC2)nc2c1c(=O)n(C)c(=O)n2C	-11.0	/	/	-0.6

No.	BJeLR lethal	Autofluor counter	Sa ugtP lethal
61	7.4	4127	-7.4
62	-1.5	3146	9.1
63	-11.0	4338	-21.8
64	-6.7	2728	9.1
65	6.4	3581	-8.3
66	-15.6	4699	7.9
67	-11.4	3866	5.7
